# NPYLR7 ag: mosquito NPYLR7 agonism | HEK293T NPYLR7/Galpha15, GCaMP6s calcium fluorescence | actives 0.15% (n = 270,000) | activation, % at 10 µM; in the data active means activation above about 40%;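 further: 0% = vehicle and 100% = reference agonist at the receptor; some compounds past the cut are filed as inactive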
# NPYLR7 ag max-min: also measured in NPYLR7 ag; calls as there; activation, %; measured here: Max-Min RFU normalised activation; some inactives read as strong as hits;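 span of the calcium signal over five minutes; 0% = vehicle and 100% = native peptide agonist; compound fluorescence can raise it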
# * hit, by the source's call; & = joins results of further samples.
SMILES,NPYLR7 ag,NPYLR7 ag max-min
O=C1CSC2(C(=O)Nc3ccccc32)N1c1cc(F)ccc1F (stereo not drawn),4.3,3.8
Cc1c(NS(=O)(=O)c2ccc(C(C)(C)C)cc2)c(=O)n(-c2ccccc2)n1C,-4.8,-4.1
COC(=O)C(c1ccccc1Cl)N1CCN(C(=O)c2cc(C)[nH]n2)CC1 (stereo not drawn),9.5,7.5
COC(=O)CSc1ccc2nnc(CCNS(=O)(=O)c3ccccc3)n2n1,-11.9,-13.0
C=CC=CSCC(=O)N=c1c(C#N)cc2c(=O)n3cccc(C)c3nc2n1CCCC,0.8,-0.9
Cc1c(C(=O)NCc2ccc3c(c2)OCCO3)sc(=O)n1CCC#N,8.6,5.7
CC(C)=CCN1CCN(Cc2ccc(Cl)cc2)CC1CCO (stereo not drawn),-3.1,-9.1
O=C(O)CCC(=O)N1N=C(c2ccc(Br)cc2)CC1c1ccc(Br)cc1 (stereo not drawn),-5.5,-6.6
O=C(NC1CCCCC1)c1cnc2ccccc2c1C(F)(F)F,3.1,3.7
CCC(C)C(NC(=O)c1ccc(Cl)cc1)C(=O)Nc1nnc(-c2cccc(OC)c2)s1 (stereo not drawn),19.3,33.9
CCCn1ncnc1C(C)NC(=O)COc1c(C)ccc(C)c1C (stereo not drawn),2.6,3.7
Cc1ccc(-n2ncc3c(=O)n(NC(=O)c4cc([N+](=O)[O-])ccc4Cl)cnc32)cc1C,4.1,1.4
O=C(NCc1c(-c2ccccc2)nc2n1CCS2)c1ccccc1,13.8,11.8
COC(=O)c1cc(Br)ccc1-c1ccc(C=Nn2nnnc2N)o1,-8.6,-15.1
COc1cccc(C(=O)Oc2c(S(=O)(=O)c3ccc(C)cc3)c(C)nn2C(C)(C)C)c1,2.0,20.8
CCn1c(SCC(=O)N2CCOc3ccc(C)cc32)nc2c3cc(OC)ccc3n(C)c2c1=O,-4.2,-6.7
Cc1[nH]n(-c2ccccc2)c(=O)c1C(=O)Cn1ccc(=O)[nH]c1=O,1.6,0.5
O=C(Nn1cnc2c(cnn2-c2ccc(F)cc2)c1=O)c1ccccc1C(F)(F)F,11.3,6.2
COc1ncccc1NC(=O)NC(c1ccc(F)cc1)C(C)(C)C (stereo not drawn),4.1,2.9
CN(c1cc(C(C)(C)C)nc(SCc2ccc(C(=O)NC3CC3)o2)n1)C1CCCCC1,9.7,8.4
COc1ccc(S(=O)(=O)NCCc2nnc3ccc(SCc4ccc(C)cc4)nn23)cc1,-13.8,-19.1
O=C1NC2(CCSCC2)C(=O)N1Cc1c(F)cccc1Cl,3.7,3.6
Cc1ccc(Cl)c(Oc2cc(N3CCC(N4CCCCC4)CC3)ncn2)c1,20.8,26.1
Cc1ccc2[nH]c(CN(C)Cc3ccc4nonc4c3)nc2c1C,0.5,-5.1
COCc1cc(C)nc(OCC(=O)N/N=C\c2cc3c(cc2Br)OCO3)c1C#N,-12.5,-10.7
Cc1ccc(-c2nc3sc(CCNS(=O)(=O)c4ccc(C)c(C)c4)c(C)n3n2)cc1,7.0,6.0
COC(=O)c1cc2n(n1)CCCN(c1cncc(C(=O)N3CCCCC3)n1)C2,0.1,-5.1
Cc1nc2sccn2c(=O)c1NC(=O)Cc1ccc(F)cc1,10.9,1.3
COc1ccc(-c2ccc(=O)n(CCNC(=O)Nc3ccc(C)c(F)c3)n2)cc1,8.8,5.6
CCCC(CCC)n1[nH]c(=O)c2c(C)cc(=O)[nH]c21,1.2,-2.8

# Profiles, quoted from the list.
# Cc1ccc(-c2nc3sc(CCNS(=O)(=O)c4ccc(C)c(C)c4)c(C)n3n2)cc1 across the screens: NPYLR7 ag = 7.0; NPYLR7 ag max-min = 6.0
# C=CC=CSCC(=O)N=c1c(C#N)cc2c(=O)n3cccc(C)c3nc2n1CCCC across the screens: NPYLR7 ag = 0.8; NPYLR7 ag max-min = -0.9

# 5 compounds from above, sorted by formula weight, descending.
SMILES,NPYLR7 ag,NPYLR7 ag max-min
CCn1c(SCC(=O)N2CCOc3ccc(C)cc32)nc2c3cc(OC)ccc3n(C)c2c1=O,-4.2,-6.7
COc1ccc(S(=O)(=O)NCCc2nnc3ccc(SCc4ccc(C)cc4)nn23)cc1,-13.8,-19.1
O=C(Nn1cnc2c(cnn2-c2ccc(F)cc2)c1=O)c1ccccc1C(F)(F)F,11.3,6.2
COc1ncccc1NC(=O)NC(c1ccc(F)cc1)C(C)(C)C (stereo not drawn),4.1,2.9
CCCC(CCC)n1[nH]c(=O)c2c(C)cc(=O)[nH]c21,1.2,-2.8

# Next section:
SMILES,NPYLR7 ag,NPYLR7 ag max-min
Cc1oc(-c2cc3c(cc2Cl)OCO3)nc1CN(C)Cc1nc2ccccc2s1,4.9,2.7
CC(C)C(Nc1cccc(F)c1C#N)C(=O)N1CCOCC1 (stereo not drawn),-2.2,-5.1
C=CC(C)(O)CN(CCC)Cc1c(C)nn(-c2ccccc2)c1Oc1ccccc1F (stereo not drawn),-3.6,2.7
COc1cccc(-c2cc(C(=O)NCc3ccco3)n3nc(-c4ccccc4)cc3n2)c1,4.6,19.2
COc1ccccc1CN(Cc1ccccc1)Cc1nc(C(=O)N2CCCC2)co1,8.5,11.6
O=C(NCC1(N2CCOCC2)CCCC1)c1cc(COc2ccc3c(c2)CCCC3)on1,1.3,-5.0
CC1(C(=O)Nc2cnc3ccccc3c2)CCN1C(=O)CC(c1ccccc1)c1ccccc1 (stereo not drawn),4.4,3.4
CSc1cccc(CN2CCCC(CNC(=O)c3ccc(F)cc3)C2)c1 (stereo not drawn),2.3&-3.9,-0.2&-3.6
Cc1nc2c(C)cccc2cc1C(=O)N1CCC(c2cc(CC(=O)O)[nH]n2)CC1,8.8,3.7
CNc1nc2cnc(Nc3ccc(OC)c(OC)c3)cc2n1CCOC,5.2,-3.9
CNC(=O)[C@@H]1C[C@@H](N)CN1C(=O)c1cc(C)c(C)s1,4.4,2.9
CC(Nc1ccc2c(c1)CCC2)C(=O)Nc1ccccc1C#N (stereo not drawn),0.4,-1.7
O=C(CN1CCc2sccc2C1c1ccc(Cl)cc1)N1CCCN(C(=O)c2ccc(F)cc2)CC1 (stereo not drawn),7.1,-4.4
CCCc1cc(=O)n(CC(=O)NC(C)C)c(-n2nc(C)cc2C)n1,-1.5,-1.1
CN1CCN(C(=O)C2CCN(C(=O)c3cc4sccc4n3C)CC2)CC1,6.8,5.7

# In the list so far, three contain a furan ring, fused or not:
SMILES,NPYLR7 ag,NPYLR7 ag max-min
COC(=O)c1cc(Br)ccc1-c1ccc(C=Nn2nnnc2N)o1,-8.6,-15.1
CN(c1cc(C(C)(C)C)nc(SCc2ccc(C(=O)NC3CC3)o2)n1)C1CCCCC1,9.7,8.4
COc1cccc(-c2cc(C(=O)NCc3ccco3)n3nc(-c4ccccc4)cc3n2)c1,4.6,19.2

# Following part
SMILES,NPYLR7 ag,NPYLR7 ag max-min
C(=N/Nc1nc(Nc2ccccc2)nc(N2CCOCC2)n1)/c1ccncc1,-9.7,-12.8
CCCc1nc(C)cc(-c2ccccc2CO)n1,15.7,11.8
COc1cn(CC(=O)N2CCc3ccccc32)c(CSc2ccc(Cl)cc2)cc1=O,-1.0,-6.3
CC(C)N(CC(=O)N(CCc1c[nH]c2ccccc12)Cc1ccc(C(C)(C)C)cc1)CC(O)COCc1ccco1 (stereo not drawn),-11.2,-17.4
COc1ccc(-c2csc(=Nc3cccc(C(C)=O)c3)n2NC(=O)C(C)Oc2ccc(Cl)cc2C)cc1 (stereo not drawn),-11.7,-14.8
Cc1nnc(SCCn2c(N3CCN(Cc4ccccc4)CC3)nc3c2c(=O)[nH]c(=O)n3C)s1,-0.6,65.8
COc1ccc(CSc2nnc(-c3ccc(OC)cc3)o2)cc1,20.0,16.1
CC(C)(C)c1ccc(N2C(=O)/C(=C/c3ccc(Cl)cc3)C=C2c2ccccc2)cc1,-1.1,0.8
Oc1ccccc1C=Nn1cnnc1,-7.7,1.1
O=C(C1CCN(S(=O)(=O)c2ccccc2)CC1)N1CCN(Cc2cccc3ccccc23)CC1,5.9,5.9
O=S(=O)(NC12CC3CC(CC(C3)C1)C2)c1ccc(F)c(F)c1,23.9&-0.8,21.3&-1.3
Cc1cn2cc(CNC(=O)C3CC(=O)N(CC(C)C)C3)nc2s1 (stereo not drawn),1.2,1.4
CCCCNC(=O)c1csc(CN(CCCC)C(=O)Nc2ccc(Cl)cc2Cl)n1,9.2,11.6
OCc1cc(-c2nc3ccccc3s2)ccc1F,20.9,16.5
CC(C(=O)N1CCc2sccc2C1)N1CCC(C(=O)Nc2nncs2)CC1 (stereo not drawn),14.5,11.1
Cc1cccc(C(C)C)c1NC(=O)c1c(C)noc1C,-5.8,-8.1
COCC(=O)N(Cc1cc(NC(=O)c2ccccc2Cl)ccc1N(C)C)C(C)c1ccccc1 (stereo not drawn),-7.9,-1.0
COCc1cc(CNC(=O)[C@@]23CC[C@@](C)(OC2=O)C3(C)C)[nH]n1,6.5,7.4
COc1ccc(C2C(C(=O)OC(C)C)=C(C)NC3=C2C(=O)CC(c2ccccc2)C3)cc1 (stereo not drawn),9.0,4.9
C=CCN(CC(=O)N1CCc2sccc2C1COc1ccc(F)cc1)C(=O)C1CCCC1 (stereo not drawn),-4.0,-1.5
Cc1ccc(C(NC(=O)C2COc3ccccc3O2)c2ccccc2)cc1 (stereo not drawn),6.2,13.0
COC(=O)C1=C(C)NC(=O)C1(Nc1ncccn1)C(F)(F)F (stereo not drawn),-7.5,-12.9
Cc1cccnc1C1=NOC(Cc2ccccc2)C(=O)N1CCc1ccccc1 (stereo not drawn),6.1,3.0
COc1ccccc1N=C1SC(C(=O)Nc2ccccc2)CC(=O)N1C (stereo not drawn),1.1,-1.1
CCCCN(CC(=O)N(Cc1cccn1Cc1ccc(Br)cc1)C1CCCCC1)S(=O)(=O)c1c(C)cc(C)cc1C,-10.6,0.0
CCN(CC1CCCN(CCc2cccc(OC)c2)C1)C(=O)C1=C(C)OCCO1 (stereo not drawn),7.2&5.1,5.0&3.1
O=C(NCC1CCCN(Cc2ccccc2OC2CCCC2)C1)c1cccs1 (stereo not drawn),0.8,-2.9
Cc1ccc2nc(-c3ccccc3Cl)c(NC(C)(C)CC(C)(C)C)n2c1,8.3,12.5
Cn1nc(C(=O)Nc2ccccc2CN2CCc3ccccc32)ccc1=O,-19.6,-22.5
O=C(NCCc1ccncc1)c1ccc(Cc2ccccc2)o1,-8.1,-11.5
CC(C)C(=O)N(CCCCN1C(=O)c2ccccc2C1=O)c1ccc(Cl)cc1,-0.1,-1.9
CCOc1ccc(Br)cc1S(=O)(=O)NCc1ccco1,-0.3,3.0
CC(C)(C)C(=O)Nc1ccnn1C1CCN(C(=O)c2ccc3cccc(F)c3n2)CC1,-4.6,-5.4
CCN(CC(=O)Nc1cc(C(C)(C)C)nn1-c1ccccc1C)C(=O)Nc1ccc(C(F)(F)F)cc1,-10.9,-13.3
COc1ccc(-c2cccc(-c3cccc(NC(=O)C(F)(F)C(F)(F)C(F)(F)F)c3)n2)cc1,-8.8,-5.9
COCc1nc(C)nc(N2CCN(C(=O)c3ccc(F)cc3)CC2)c1Cc1ccc(Cl)cc1,5.6,6.4
CCCCOc1ccc(S(=O)(=O)Nc2ccc(Cl)cc2C(=O)NCc2ccccc2)cc1,3.5,-1.1
Cc1nc2c(c(NC[C@H]3CCc4ccccc4O3)n1)CNC2,16.3,9.2
Cc1cc(C)c(C)c(S(=O)CCO)c1C (stereo not drawn),-2.5,-5.8
CC1(C)CC(NC2CCN(c3ccc(NC(=O)Cc4cccc(Cl)c4)cc3)CC2)CCO1 (stereo not drawn),33.7,24.6
CCOC(=O)C1=C(c2ccccc2)N(C)C(=O)NC1c1ccccc1Cl (stereo not drawn),-2.8,-8.5
CCN(CC)C(=O)C(C1CCCC1)N1CCN(C(=O)c2ccc(Cl)c(Cl)c2)CC1 (stereo not drawn),-2.9,-1.4
C[C@H](NC[C@H](O)CP(=O)(O)Cc1ccccc1)c1ccc(Cl)c(Cl)c1,-12.5,-16.6
O=C(NCCc1ccc(F)cc1)c1nnn(-c2ccccc2)c1CSc1ncccn1,-3.1,-6.6
O=C(CCc1nc2ccccc2s1)NCC1CCCO1 (stereo not drawn),-3.4,-5.2
Cc1cnc(C(=O)N(CC(C)C)c2c(N)n(CC(C)C)c(=O)[nH]c2=O)cn1,9.0,8.6
Cc1ccsc1CN(Cc1ccc(F)cc1)C(=O)CN(C(=O)c1cccc(Br)c1)C1CC1,-6.3,-1.8
Cc1cc(Cl)ccc1N1CCN(C(=O)c2cccs2)C(C)C1=O (stereo not drawn),-1.3,-5.2
CC(OC(=O)c1nccnc1N)C(=O)Nc1ccc(Cl)cc1C(F)(F)F (stereo not drawn),-0.4,-2.7
CCc1sc(C(=O)Nn2cnnc2)cc1Br,0.8,1.1
Cc1nc2c(=O)n(CC(=O)c3ccc(F)cc3)nc(-c3ccco3)c2s1,3.1,0.4
COCCOCC(=O)N1CCC(c2cn(Cc3cccc(F)c3)c3ccccc23)CC1,-0.3,2.3
Cn1ccc(NS(=O)(=O)c2cc(C(=O)O)cc(Cl)c2Cl)n1,-0.5,15.1
CCNc1sc(S(C)(=O)=O)nc1S(=O)(=O)c1ccc(Cl)cc1,8.6,5.5
Cc1ccncc1C(=O)N(Cc1ccc(F)cc1)CC1CCCO1 (stereo not drawn),0.2,10.7
c1ccc(C2=Nc3nnnn3CC2)cc1,13.8,7.2
CC(C)c1nn(-c2ccccc2)c(C(C)C)c1C(=O)N1CCCCC1,-4.4,-1.5
CC(C)CN(CC(=O)N(CCc1c[nH]c2ccccc12)Cc1ccc(C(F)(F)F)cc1)C(=O)C(C)Cl (stereo not drawn),23.6,20.4
CN(Cc1ccc(F)cc1)c1ncnc(NCCN2CCOCC2)c1N,15.4,10.0
O=C(CN(CCCN1CCOCC1)S(=O)(=O)c1ccc(Cl)cc1)N(Cc1ccc2c(c1)OCO2)Cc1ccco1,-3.3,9.7
C=CCN1CCN(c2ccc(F)c(Cl)c2)C(=O)C1C (stereo not drawn),0.8,1.9

# Source: PubChem

# Not all compounds are listed. The share of hits here may be higher or lower than overall.
